PINK1 expr mod – changes PINK1 expression. PINK1 immunofluorescence, high-content cytometry, 24 h. Potency, µM (series often up to 76.6 µM), for the others: top-dose activation (PINK1 increase), hits mostly activators. 410,000 compounds, 0.2% hits; active = well fitted activation curve with a large enough effect; inconclusive = small, poorly fitted or top-dose-only effect; inactive = flat fitted curve, though single readings scatter; cell line not stated here;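 further: potency means the concentration at half of the fitted maximal effect; % of control where 0% means no effect; nearly all actives have a fitted effect of over 65% in size; a mitochondrial uncoupler was the plate control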
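PINK1 protein, normally rapidly degraded, was detected by immunofluorescence after 24 hour compound treatment of a stable cell line. Titration data (5 concentrations) came from laser-scanning cytometry, with CCCP-treated wells as controls.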
TRPML1 ag – agonists of human TRPML1 channel; TRPML1-expressing cells, Ca2+ dye fluorescence, FDSS; host cell line not named in the record; reference of the full effect not given here; activation, % (test concentration not listed); Q9GZU1; 410,000 compounds, 0.12% hits; in the data active = activation above about 50%; inconclusive = about 30% to 50%; inactive = below about 30%; further: 0% is about no effect; the text of the record puts the active cut at 80%
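Tet-induced TRPML1-DL cells, 1,500 per well, cultured overnight, were loaded with a no-wash Ca2+ dye for 45–90 min. Calcium fluorescence was recorded on the FDSS for 110 s after compound addition, before the EC80 agonist (4 uM 54-4) was added.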
Six1-Eya2 inh – inhibitors of human Six1/Eya2 interaction. AlphaScreen GST-Six1/His-Eya2 binding, biochemical; stronger effect = lower value; control for the full effect not named in the record. activity change, % (concentration not given with the values). 360,000 compounds, 0.56% hits; in the data active = activity change below about -65%; inconclusive = about -30% to -65%; inactive = above about -30%; further: on the % scale 0 is the no-effect control and ±100 the full control effect
Target sequence (O00167 whole entry, looked up): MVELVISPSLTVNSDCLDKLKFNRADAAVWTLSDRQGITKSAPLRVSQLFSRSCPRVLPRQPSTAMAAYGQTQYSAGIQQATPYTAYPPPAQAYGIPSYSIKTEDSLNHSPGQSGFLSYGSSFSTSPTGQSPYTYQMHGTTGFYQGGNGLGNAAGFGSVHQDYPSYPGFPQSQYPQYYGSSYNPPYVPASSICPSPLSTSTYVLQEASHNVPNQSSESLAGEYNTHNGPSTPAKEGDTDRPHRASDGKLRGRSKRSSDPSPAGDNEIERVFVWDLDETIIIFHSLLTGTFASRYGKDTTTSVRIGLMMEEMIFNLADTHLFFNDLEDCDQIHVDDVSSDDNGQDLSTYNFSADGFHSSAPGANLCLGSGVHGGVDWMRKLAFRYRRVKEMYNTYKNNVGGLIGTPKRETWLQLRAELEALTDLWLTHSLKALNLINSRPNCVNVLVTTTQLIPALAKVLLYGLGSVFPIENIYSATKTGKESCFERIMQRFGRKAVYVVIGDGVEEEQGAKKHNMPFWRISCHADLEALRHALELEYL
Target sequence (Q15475 whole entry, looked up): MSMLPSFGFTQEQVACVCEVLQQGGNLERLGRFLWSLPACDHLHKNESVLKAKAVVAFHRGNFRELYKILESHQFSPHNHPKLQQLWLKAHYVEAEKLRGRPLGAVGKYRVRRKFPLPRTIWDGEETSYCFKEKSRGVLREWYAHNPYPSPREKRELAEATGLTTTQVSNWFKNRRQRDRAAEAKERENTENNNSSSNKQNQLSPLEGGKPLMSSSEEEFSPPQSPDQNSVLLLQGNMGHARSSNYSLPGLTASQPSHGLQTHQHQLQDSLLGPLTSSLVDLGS
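AlphaScreen with GST-Six1 and His-Eya2 (5X mix: 250 nM and 500 nM), glutathione donor and nickel acceptor beads; buffer 50 mM Tris pH 8.0, 300 mM NaCl, 1 mM TCEP; 1 h at 37 C in the dark.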
D2 PAM – human D2 receptor positive allosteric modulation; AID 624464; DiscoveRx D2 beta-arrestin cells, luminescence, 90 min; 100% = 57 uM dopamine signal; 360,000 compounds, 0.23% hits; potentiation, % (concentration not given with the values); P14416; active = potentiation of 50% or more; inconclusive = 30% to 50%; inactive = 30% or less;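 further: tested on top of an EC20 dose of dopamine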
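PathHunter D2 cells, attached overnight at 37 deg C, received compound in DMSO plus dopamine at EC20 (50 nM final) for 90 min at 37 deg C. Beta-arrestin recruitment was read as luminescence after 1 h with detection reagent at ambient temperature.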
CtBP-E1A blk – blocks the CtBP interaction with E1A. activity change, % (no concentration beside the values). AID 651724. 340,000 compounds, 0.49% hits. AlphaScreen GST-E1A/His-CtBP binding, 1536-well; stronger effect = lower value; control for the full effect not named in the record; in the data active means activity change below about -65%; inconclusive means about -30% to -65%; inactive means above about -30%; further: on the % scale 0 is the no-effect control and ±100 the full control effect
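In 5 uL wells, 23 nL compound meets equimolar GST-E1A and His-CtBP (5X stock 125 nM each) for 2 h, 37 °C. Beads (5X, 50 ug/mL) then 1 h, 37 °C, dark.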
D2 agonist – activates the human D2 dopamine receptor | P14416 | DiscoveRx PathHunter D2 beta-arrestin, luminescence, 90 min; 100% = 57 uM dopamine signal | activation, % (no concentration beside the values) | 360,000 compounds, 0.084% hits | AID 624465; in the data active = activation above about 40%; inconclusive = about 15% to 40%; inactive = below about 15%; further: compound concentration not given in the record; the text of the record calls up to 30% inactive
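Agonist mode: compounds alone added to overnight-plated D2 PathHunter cells for 90 min at 37 C, with 57 uM final dopamine (EC100) defining full response. Beta-arrestin recruitment detected by chemiluminescent reagent, read after 1 h at ambient temperature.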
* hit, by the source's call; ? = inconclusive; . = not tested or not shown; & = joins results of further samples; [ ] = dose if it differs, or a comment.

Results follow in this order: PINK1 expr mod, TRPML1 ag, Six1-Eya2 inh, D2 PAM, CtBP-E1A blk, D2 agonist
CN(Cc1ccccc1)C(=O)c1[nH]cnc1C(=O)N[C@@H](Cc1ccccc1)C(=O)OC(C)(C)C
    0.7%, -0.1, -6, -6, 0, -0.2
O=C(O)c1ccccc1NC(=O)C1CCN(S(=O)(=O)c2ccc3c(c2)OCCO3)CC1
    2.3%, 0.2, ?, 13, -22, 3.4
Cc1ccc(-c2nn(-c3cccc(F)c3)cc2CNCCc2ccncc2)o1
    4.3%, -0.3, -17, -9, -5, -5.5
c1ccc(CSc2ncnc3c2sc2nc(N4CCOCC4)c4c(c23)CCCC4)cc1
    0.8%, -1.2, 6, -17, 3, -2.6
Cn1c(=O)cc(OCCCC(=O)Nc2ccc3c(c2)OCCO3)c2ccccc21
    8.3%[38.3 µM], 0.2, -1, -6, -1, 1.1
Cc1cc(C)cc(-n2c(C)cc(C=C(C#N)C#N)c2C)c1
    7.0%, 1.8, 0, -10, -5, -2.7
O=C(Nc1cccc(C(=O)Nc2ccccc2C(=O)O)c1)c1cccc(Cl)c1
    -0.5%, 2.0, 0, 12, 9, 6.0
O=C(N/N=C/c1cc(Cl)ccc1O)c1ccncc1
    0.6%, ., -92*, -9, -95*, 0.3
CC(C)CCNC(=O)c1ccc(C2SCC(=O)N2Cc2ccco2)cc1 (stereo not given)
    3.7%, -0.7, -1, -5, 3, -0.5
Cc1ccc(S(=O)(=O)c2nc(S(C)(=O)=O)sc2N2CCN(C)CC2)cc1
    1.3%, -0.1, 0, -27, -1, -4.7
Cc1ccc(N(CC(=O)NCCc2ccc(F)cc2)S(=O)(=O)c2ccc(Cl)c([N+](=O)[O-])c2)c(C)c1
    -2.2%, 1.1, -13, 10, -7, 5.1
CC(C)c1ccc2oc(=O)cc(CN3CCCCC3)c2c1
    6.2%, 0.3, 4, -14, 6, 0.4
CC1=C(C(N)=O)C(c2cccs2)NC(=S)N1 (stereo not given)
    -0.4%, -0.2, 0, -1, 4, -1.2
Cc1ccc(NCC(=O)N=Nc2c(O)n(C)c3ccccc23)cc1
    -2.3%, 0.8, -20, -7, -14, 1.9
CC(=O)c1c(C)[nH]c(C(=O)NCc2ccc(C)cc2)c1C
    -0.4%, -1.0, -7, -28, -4, 0.9
Cc1nccn1CC(=O)c1ccccc1
    -0.1%, 0.1, 1, -8, -2, -4.7
CC1Sc2ccc(S(=O)(=O)CCC(=O)N3CCCC3)cc2NC1=O (stereo not given)
    -0.3%, -0.9, 0, -3, 5, -2.3
CSc1ccc(CNC(=O)C2(C)CCN2C(C)C)cc1 (stereo not given)
    2.7%, -0.1, 1, -1, 7, -1.1
COc1ccc(NC(=O)c2ccccc2NC(=O)C2CCCCC2C(=O)O)cc1 (stereo not given)
    3.1%, 0.8, 8, -1, -8, 3.4
Cc1[nH]c2ccccc2c1C(O)CN1CCC2(CC1)OCCO2 (stereo not given)
    2.0%, 1.4, -3, -9, 1, -1.0
COc1cc(OC)c(NS(=O)(=O)c2coc(C(N)=O)c2)cc1Cl
    1.5%, -0.1, 0, -2, -2, -3.7
Cc1ccc(-n2c(C)cc(C(=O)COC(=O)c3c(C)noc3C)c2C)cc1
    4.1%[38.3 µM], 1.5, -15, -3, -19, 1.0
Cc1ccc(NC(=O)C[n+]2cc(-c3ccccc3)n3c2CCC3)c(C)c1
    -1.8%, 1.6, 19, -5, -1, 0.6
COc1ccc(/C(O)=C2/C(=O)C(=O)N(CCN(C)C)C2c2ccccn2)cc1OC (stereo not given)
    -0.4%, 0.7, -11, 9, -12, -2.1
O=C(COC(=O)c1ccc(Cl)nc1)NCCc1ccccc1
    1.9%, 0.7, 4, -1, 3, -1.1
COc1ccc(NC(=O)CSc2nnc(-c3ccccc3)n2N)cc1
    -1.7%, 1.8, -8, 7, -5, -1.8
CC(C)(C)C(=O)CSc1ncnc2c1cnn2Cc1ccccc1
    1.3%, 3.6, 8, -3, 11, -2.1
CCOC(=O)C1(CC2CCCCO2)CCN(Cc2nc(C(C)C)cs2)CC1 (stereo not given)
    5.1%, -0.4, -1, -26, 9, -4.9
CC(Oc1ccccc1)C(=O)N1CCN(c2ccc(N3CCCCCC3)nn2)CC1 (stereo not given)
    -0.4%, 0.7, -16, -25, 7, 11
COc1cc2c(cc1OC)CN(C(=O)c1cccs1)CC2
    -1.2%, -0.6, -10, -15, -5, -2.6
CN(Cc1ccccc1)c1nc2c(c(=O)[nH]c(=O)n2C)n1CCSc1nc2ccccc2[nH]1
    -0.6%, 1.0, -2, -16, -2, -1.6
CCOC(=O)c1c(C)[nH]c(C(=O)COC(=O)/C=C/c2ccc(OC(F)F)cc2)c1C
    3.2%, -0.4, 1, 19, -9, 0.2
CSc1ncccc1C(=O)N1CCN(S(=O)(=O)c2ccc3c(c2)OCCO3)CC1
    0.5%, -1.5, -5, -5, ., -1.6
CN(C)S(=O)(=O)c1cccc(C(=O)Nc2ccc3c(c2)CCC3)c1
    1.1%, -1.1, -4, -11, 5, -4.2
CN(C)c1ccc(C#Cc2ccc3cc(CCO)oc(=O)c3c2)cc1
    ?, -0.4, -1, -5, ., -1.3
COc1cc(C(=O)OCCNC(=O)c2ccncc2)cc(OC)c1OC
    2.0%, 0.7, 4, -7, 0, 0.4
CCN1C(=O)CC(N2CCC(C(=O)OC)CC2)C1=O (stereo not given)
    -2.7%, 0.5, -1, -7, 0, -1.9
COc1cc(NC(=O)CN2C(=O)CN(C)C2=O)c(C)cc1[N+](=O)[O-]
    -0.3%, 0.1, 0, -2, -2, -1.6
O=C(COC(=O)c1ccco1)NNC(=O)c1ccc(Cl)cc1
    1.6%, -0.6, -4, -6, ., 3.4
Cc1cccc(NCC(=O)N/N=C/c2cccc(Br)c2)c1
    6.5%, 0.6, -12, -12, 4, -3.7

Records listed above printed as active in CtBP-E1A blk:
SMILES	Six1-Eya2 inh	D2 PAM	CtBP-E1A blk	D2 agonist
O=C(N/N=C/c1cc(Cl)ccc1O)c1ccncc1	-92*	-9	-95*	0.3

The results go on:
Results follow in this order: PINK1 expr mod, TRPML1 ag, Six1-Eya2 inh, D2 PAM, CtBP-E1A blk, D2 agonist
C[C@]12c3[nH]c4ccccc4c3CCN1C(=O)C(CC(=O)NCc1cccc(C(F)(F)F)c1)C[C@@H]2C(=O)N1CCOCC1 (stereo not given in full)
    0.8%, 0.5, -16, ., -2, 0.5
Cc1nn(CC(=O)NCCCN2CCN(C)CC2)c(=O)c2cc(-c3ccccc3)nn12
    0.3%, -0.2, -3, -16, -4, 2.2
O=C(CCc1ccc(S(=O)(=O)NCc2ccccc2)cc1)NCC1CCCO1 (stereo not given)
    1.1%, -0.4, 5, 1, -5, 3.1
CC(=O)Nc1ccc(S(=O)(=O)NC(C)C(=O)NCCc2ccc(F)cc2)cc1 (stereo not given)
    1.4%, 0.5, -2, 0, ., -3.0
CC(C)=C1SC(N2CCCCC2)=NC1=O
    1.8%, -0.3, 13, 4, 3, -1.0
CC(C)(C)NC(=O)C(c1ccc(OCC(N)=O)cc1)N(C(=O)c1cccnc1)C1CC1 (stereo not given)
    3.5%, 1.0, 7, -3, 11, -3.4
O=C1NC[C@H](c2ccccc2)OC(=O)[C@H](Cc2ccc(F)cc2)CC/C=C/C[C@H]1CC(=O)N(CCO)Cc1ccccc1
    -1.3%, 0.0, 1, 12, -11, -11
COc1ccc(CCNC(=O)CSc2nn(-c3ccccc3)c(=S)s2)cc1
    3.1%, 1.1, -5, 0, -1, 0.0
COc1ccc(-n2c(SCCNCCO)nc3sc4c(c3c2=O)CCCC4)cc1
    1.3%, -0.1, -26, -12, ?, -2.6
CC(=O)c1cccc(NC(=O)COC(=O)c2cccs2)c1
    4.7%, 0.0, -3, -5, -11, -3.3
CSc1ccccc1NC(=O)c1cccnc1
    2.1%[38.3 µM], 0.1, 3, -7, -7, 0.6
Fc1ccccc1C1c2cccn2CCN1C(=S)Nc1cccc(Br)c1 (stereo not given)
    -0.9%, 0.0, 5, -1, 7, -3.3
CCn1c(SCC(=O)Nc2nnc(C)s2)nc2c(c1=O)SC(C)C2 (stereo not given)
    0.4%, 0.5, -1, -10, -1, -6.0
N#Cc1ccsc1NC(=O)COC(=O)CCS(=O)(=O)c1ccccc1
    -2.1%, 2.5, -25, -6, -20, -2.3
Cc1ccc(S(=O)(=O)NCc2ccccc2)cc1C(=O)N1CCCCC1
    2.2%, -0.1, 7, -8, 2, 1.8
COc1ccccc1-c1oc2ccccc2c1C#CC(C)(C)O
    7.1%, 0.3, -3, -7, 6, -1.9
COc1cc2c(cc1OC)C(C)N(C(=O)c1ccc(Br)o1)CC2 (stereo not given)
    6.6%, 3.3, 0, 9, 3, -3.3
CC(C)(C)NC(=O)CN(C(=O)c1csnn1)c1ccccc1-c1ccccc1
    1.3%, 0.7, 12, -3, 25, 0.0
CN(C)CCCNC(=O)OC1CC2CC1[C@H]1CCCCN1C2=O (stereo not given in full)
    -0.9%, -0.2, -4, ., 3, .
COc1ccc(CCNC(=O)C/C(C)=N/NC(=O)COc2ccc(C)cc2Br)cc1OC
    4.7%, 0.5, 2, -2, 0, -2.4

Laid out differently: entries from further up
molecule,PINK1 expr mod,TRPML1 ag,Six1-Eya2 inh,D2 PAM,CtBP-E1A blk,D2 agonist
COc1ccc(-n2c(SCCNCCO)nc3sc4c(c3c2=O)CCCC4)cc1,1.3%,-0.1,-26,-12,?,-2.6
CC(=O)c1cccc(NC(=O)COC(=O)c2cccs2)c1,4.7%,0.0,-3,-5,-11,-3.3

Remaining list, next part
Results follow in this order: PINK1 expr mod, TRPML1 ag, Six1-Eya2 inh, D2 PAM, CtBP-E1A blk, D2 agonist
Cc1nc(SCC(=O)Nc2ccc3[nH]c(=O)[nH]c3c2)nc(C)c1C
    0.9%, 0.2, -6, -21, -6, -0.8
CC(C)Oc1ccc(C(=O)Nc2c3c(nn2-c2ccccc2)CS(=O)(=O)C3)cc1
    1.6%, 0.9, 6, 3, -5, 0.0
O=C(N/N=C/c1cc2c(cc1Cl)OCO2)c1ccccn1
    ?, -0.1, -2, -15, 17, -4.5
O=C(O)Cc1ccc(NC(=O)C(c2ccccc2)c2ccccc2)cc1
    1.8%, -0.7, 2, -6, 0, -2.2
COc1ccc(Nc2ncc(C(=O)N3CCN(c4ccc(F)cc4)CC3)c3ccccc23)cc1
    0.2%&0.7%, -0.2&-0.5, ?, -1, -27, -2.2
COC(=O)[C@@H]1C[C@H]2CC[C@H](O)C[C@H]2N1Cc1ccccc1OS(=O)(=O)c1ccc(C)cc1
    0.7%, 0.5, -2, -3, -1, -0.8
Cc1ccc(NC(=O)Cn2c(=O)n(CCC(=O)NC3CCN(Cc4ccccc4)CC3)c(=O)c3ccccc32)cc1
    12%, ., 3, 1, 11, 1.0
Cc1ccc(S(=O)(=O)N(C)C)cc1NC(=O)CCNC(=O)c1ccco1
    -0.1%, -0.1, 3, -3, -15, -4.9
C=CCn1c(=O)c2ccccc2n2c(SC(C)C(=O)Nc3nc(-c4ccccc4)cs3)nnc12 (stereo not given)
    0.2%, 3.3, -1, -14, 0, 1.1
NC(=O)c1c(NC(=O)CN2C(=O)CCC2=O)sc2c1CCCCC2
    0.3%, -0.6, -2, -5, 2, -1.6
Cc1ccc(NC(=O)NNC(=O)c2cccs2)cc1
    -3.2%, 0.1, -3, 4, 6, -3.5
O=C(c1ccccc1F)N1CCN(S(=O)(=O)c2ccc(Br)cc2)CC1
    1.4%, -0.8, -1, -1, 0, 1.2
